YopH inh: inhibitors of Yersinia enterocolitica YopH tyrosine phosphatase. AID 898. fluorescence Ex485/Em525. inhibition, %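 (about 10 µM by stock and volumes)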. 140,000 compounds, 0.16% hits;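 active = inhibition of 50% or more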;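 note: controls were vehicle for no effect and minimum signal wells for full effect; inactives centre near -20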
Mtb bLac sens: beta-lactam sensitization of Mtb H37Rv; 330,000 compounds, 0.27% hits; inhibition, % at 25 µM; M. tuberculosis H37Rv growth with meropenem, percent inhibition; hits of this screen are not shown here;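 active = about 74% or more and at least 40 points above the plate without the antibiotic, then above 30% in a dose series; inconclusive = first-round hits that could not be retested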;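 note: growth measured after seven days incubation then overnight dye step; 0% = bacteria only wells and 100% = bacteria with antibiotic; twin plates without the antibiotic show which effects depend on it; some results filed as inactive read as strong as hits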
Arbovirus anti: antivirals against arbovirus infection. arbovirus infection cell-based antiviral screen. inhibition, % at 10 µM. 200,000 compounds, 0.37% hits. AID 1251;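 active = inhibition from about 30%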;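 note: bluetongue infection of BSR cells; cell survival read as ATP light after 72 h; 0% = infected wells without compound and 100% = uninfected wells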
Mtb growth: M. tuberculosis H37Rv growth inhibitors, H37Rv strain (AID 1626). M. tuberculosis H37Rv growth inhibition; higher % means a stronger effect. one-dose inhibition, % at 10 µM; IC50 in µM for titrated hits. 220,000 compounds, 0.95% hits;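 active = confirmed in a dose series; inconclusive = inhibition above 80% but not taken into the dose series; inactive = below 80% or under 30% at every dose of the series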;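 note: bacteria incubated seven days before Alamar blue readout; 0% = bacteria only wells and 100% = bacteria with antibiotic wells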
RecA splice inh: inhibitors of M. tuberculosis RecA intein splicing. cell-free RecA intein splicing, fluorescence. inhibition, %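 (about 9 µM by stock and volumes)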. 290,000 compounds, 0.75% hits. AID 2221; in the data active = inhibition above about 30%; inconclusive = no clear call, values can overlap the other calls;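 note: 0% = vehicle wells and 100% = reference inhibitor control wells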
Target sequence (P9WHJ3 whole entry, looked up, canonical isoform): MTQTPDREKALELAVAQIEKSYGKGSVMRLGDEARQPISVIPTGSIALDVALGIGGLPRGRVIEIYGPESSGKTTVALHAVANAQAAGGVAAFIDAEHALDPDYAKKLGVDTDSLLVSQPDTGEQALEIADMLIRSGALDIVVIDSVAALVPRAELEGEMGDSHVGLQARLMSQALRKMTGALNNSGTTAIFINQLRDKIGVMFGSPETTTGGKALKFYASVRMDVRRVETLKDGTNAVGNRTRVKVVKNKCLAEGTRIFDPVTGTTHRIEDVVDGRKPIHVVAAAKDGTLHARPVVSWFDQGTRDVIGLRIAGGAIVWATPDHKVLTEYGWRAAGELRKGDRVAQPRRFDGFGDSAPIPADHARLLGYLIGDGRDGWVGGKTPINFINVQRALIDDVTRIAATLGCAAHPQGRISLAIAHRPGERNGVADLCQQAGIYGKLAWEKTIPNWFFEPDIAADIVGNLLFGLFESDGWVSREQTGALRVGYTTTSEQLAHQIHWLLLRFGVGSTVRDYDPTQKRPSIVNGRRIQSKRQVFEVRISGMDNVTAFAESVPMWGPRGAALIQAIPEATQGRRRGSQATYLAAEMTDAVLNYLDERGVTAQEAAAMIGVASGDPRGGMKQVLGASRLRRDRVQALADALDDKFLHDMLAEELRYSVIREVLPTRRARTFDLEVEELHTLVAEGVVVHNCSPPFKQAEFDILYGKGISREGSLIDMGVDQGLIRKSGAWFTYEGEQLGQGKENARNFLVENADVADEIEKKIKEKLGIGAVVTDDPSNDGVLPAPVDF
Arbovirus anti repeat: further read-out of Arbovirus anti, marked with its call; inhibition, %; measured here: 10K subset replicate screen; many hits read low in the repeat;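 first of two repeat runs on a subset; 0% = infected and 100% = uninfected wells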
Starred values were filed as active, the others as inactive; ? = inconclusive; · = not tested or not shown. An excerpt, so the mix of outcomes need not match the whole.

SMILES	YopH inh	Mtb bLac sens	Arbovirus anti	Mtb growth	RecA splice inh	others
CCc1c(C)nc2cc(-c3ccc(OC)cc3)[nH]n2c1=O	-24	5	-9	6%	-1.1
Cc1cc(OCC(=O)N2CCOCC2)ccc1NC(=O)C1CCCCC1	-27	2	4	3%	0.9
CC(=O)c1ccc(NC(=O)CCOc2cc(C)ccc2C)cc1	·	-3	·	·	0.3
COCCNc1ccc(N2C(=O)C3CCCCC3C2=O)cc1[N+](=O)[O-] (configuration not stated)	·	-9	2	-2%	-1.8
O=c1c2ccccc2nc(-c2ccco2)n1-c1ccccn1	-21	-9	0	3%	-1.3	Arbovirus anti repeat=-1
Cc1cc(Nc2ccccc2)nc(NCc2ccccc2)n1	-18	98	-36	11µM*	10
COC(=O)N/N=C\c1ccccc1OC/C=C/c1ccccc1	·	8	·	·	-0.7
O=C(O)CCC(=O)Nc1sc2c(c1C(=O)NCc1ccccc1)CCCC2	·	-4	·	·	-0.4
O=C(CC(=O)Nc1ccc(Cl)cc1)N/N=C\c1cccc(F)c1	·	5	·	·	0.1
CCc1cccc(NC(=O)C2CCCN(S(=O)(=O)c3cccnc3)C2)c1 (configuration not stated)	·	-3	·	·	-1.0
CC(C)(C)C(=O)Nc1cc(NC(=O)C(C)(C)C)cc(C(=O)Nc2c[nH]c(=O)[nH]c2=O)c1	·	-1	·	·	1.1
CCNC(=O)Oc1ccc[nH]c1=O	·	4	·	-15%	1.1
COc1cc(C(=O)NCc2ccc3[nH]c(C)cc3c2)cc(OC)c1OC	·	12	17	1%	1.2
COc1ccc(N2CCN(S(=O)(=O)c3ccc4c(c3)N(C(C)=O)CCO4)CC2)cc1	·	9	·	·	-0.2
COCc1[nH]c(=S)[nH]c(=O)c1C	·	-4	·	-15%	2.5
Cc1ccccc1NC(=O)Cc1nnc(NC(=O)Nc2ccccc2F)s1	·	-7	·	·	-3.7
Cc1ccccc1C(=O)NC1CCN(CC(=O)NC2CCCCC2)CC1	·	2	·	·	-3.0
COC(=O)c1c(-c2cccs2)csc1NC(=O)CN1CCOCC1	-23	12	-8	7%	6.2
Cc1ccccc1NS(=O)(=O)c1ccc(C(=O)NNC(=O)c2ccccc2O)cc1	·	-1	·	·	13
CS(=O)(=O)N1CCN=C1SCc1ccccc1	·	-2	·	·	-1.5
Cc1ccc(N2C(N)=C(C#N)C(c3ccsc3)C3=C2CC(C)(C)CC3=O)cc1 (configuration not stated)	18	-7	9	-12%	5.2
CC1Cc2ccccc2N1C(=O)CSc1nnc(-c2ccc(S(=O)(=O)N3CCCC3)cc2)o1 (configuration not stated)	-32	2	7	0%	-1.0
Cc1ccc(OC(=O)c2ccc3snnc3c2)cc1	-17	4	16	69%	2.1
Cc1ccc(C(=O)O)cc1NC(=S)NC(=O)Cc1ccccc1	-17	2	4	-8%	-2.3
c1cncc(CSc2nnc3ccc(-c4ccco4)nn23)c1	·	-2	3	0%	2.1
COCCCn1c(C(=O)N2CC(C)OC(C)C2)cc2c(=O)n3ccccc3nc21 (configuration not stated)	·	-2	·	·	-106
CC(=O)N/N=C/c1c(C)[nH]n(-c2ccccc2)c1=O	·	19	3	-8%	·
O=S(=O)(NCc1cn2ccccc2n1)c1cc(F)ccc1F	-19	-19	1	-15%	0.2
CCCC(=O)N(CCN1CCOCC1)c1nc2cc(C)c(C)cc2s1	·	1	·	·	2.5
CC1=NNC(=O)C1Cc1ccccc1C (configuration not stated)	·	-3	·	·	95*
CCOC(=O)c1cnn(-c2nc(OCC)cc(OCC)n2)c1C	-42	9	-6	9%	2.9
CCn1c2ccccc2c2cc(NC(=O)CN(C)CC(=O)Nc3ccc(N4CCOCC4)cc3)ccc21	·	96	-33	43%	1.4
CCN1CCC(Nc2ccnc3cc(Cl)ccc23)CC1	·	5	·	-9%	-12
COc1ccc(OCC(=O)Nc2ccc(C(=O)Nc3ccccc3C(=O)O)cc2)cc1	·	3	·	·	1.1
COc1ccc(-n2nc(C(=O)NCC(=O)Nc3cccc(Cl)c3)c3ccccc3c2=O)cc1	·	3	·	·	-36
COCCCNC(=O)CCc1nc2cccnc2n1Cc1ccc(OC)cc1	-9	-2	9	-3%	0.1
CC1CC(N(C(=O)c2ccco2)c2ccccc2)c2ccccc2N1C(=O)c1ccco1 (configuration not stated)	-23	-3	-8	-2%	·
CCCCCCCC(=O)NC1=NC(=O)C(C)(C)S1	·	-5	·	2%	0.5
CCOc1ccccc1OCCCC(=O)N(CC)CC(=O)Nc1c(F)cccc1F	·	-10	·	·	0.1
CC(=O)C(Cc1ccccc1)NC(=O)CN(C)Cc1ccccc1Cl (configuration not stated)	·	-3	·	·	3.2
O=C(COC(=O)CNC(=O)c1ccc(Br)cc1)NCCC1=CCCCC1	·	-2	1	6%	-3.0
COc1ccc(CNC(=O)CCNS(=O)(=O)c2ccc(C)cc2)cc1	-3	-7	-1	5%	1.7
O=C(NCCc1ccc(F)cc1)NC12CC3CC(CC(C3)C1)C2	·	100	·	·	0.8
CC(C)c1ccc(C(=O)NCCCN2CCOCC2)cc1	·	-6	·	·	2.8
Cc1ccc(C(=O)NCCNS(=O)(=O)c2ccccc2)cn1	·	-8	·	·	-2.0
CC(C)c1ccc(N(CC(=O)NC2CCCCC2)C(=O)CNC(=O)c2ccco2)cc1	·	-4	·	·	4.9
CC(=O)C1=C(O)C(=O)N(CCCn2ccnc2)C1c1ccc(Cl)cc1 (configuration not stated)	·	-8	2	-3%	0.5
CCC(=O)N1CCc2cc(Br)cc(S(=O)(=O)CCC(=O)NCC3CCCO3)c21 (configuration not stated)	15	-2	3	·	·
Cc1noc(NS(=O)(=O)c2ccc(NC(=O)C(F)(F)F)cc2)c1C	·	8	·	·	0.0
Cc1[nH]nc(N=CC2=C(O)CC(c3ccco3)CC2=O)c1-c1ccc(Cl)cc1 (configuration not stated)	10	13	10	2%	2.0
COc1cc(NC(=O)COC(=O)c2n[nH]c3ccccc23)c(C)cc1[N+](=O)[O-]	·	-4	-7	9%	-1.4
Cc1ccc(N2C(N)=C(C#N)C(c3cc(CN4CCOCC4)cs3)C3=C2CC(C)(C)CC3=O)cc1 (configuration not stated)	·	1	3	11%	-5.3
O=C(Nc1nnc(-c2cccs2)o1)c1cc(-c2ccccc2)nc2ccccc12	-28	98	-11	·	1.5
Cc1ccc(NS(=O)(=O)N2CCOCC2)cc1	·	-3	·	·	0.4
CCCCN(Cc1ccc(C(=O)N[C@H](C(=O)O)C(C)C)cc1)C(=O)C(c1ccccc1)c1ccccc1	·	33	·	·	2.4
CCCn1c(CN2CCN(C(=O)OCC)CC2)nc2cc(NC(C)=O)ccc21	·	0	·	·	-0.5
CN(C(=O)CSc1ccccc1C(=O)O)C1CCCCC1	-13	71	1	-5%	-0.7
Cc1cccc(-c2oc(C)c(C)[n+]2[O-])c1	12	-7	3	3%	2.0
CS(=O)(=O)Cc1cccc(C(=O)NC2CCSc3ccccc32)c1 (configuration not stated)	·	2	·	·	-2.8
Cc1ccc2cccc(S(=O)(=O)Nc3c(C)n(C)n(-c4ccccc4)c3=O)c2n1	12	-6	14	9%	2.0

Later entries
SMILES	YopH inh	Mtb bLac sens	Arbovirus anti	Mtb growth	RecA splice inh	others
Cc1cc(O)c(CN2CCN(c3ccccc3)CC2)cc1C	6	5	1	-3%	3.1
O=C1C2=C(C(c3ccccc3)=NCCN2)C(c2cccc([N+](=O)[O-])c2)N1c1ccccc1 (configuration not stated)	·	2	1	5%	3.1
CCOC(=O)N1CCN(c2ccc(N3C(=O)CCCC3=O)cc2[N+](=O)[O-])CC1	·	2	6	-10%	0.0
Cc1nc2cc(CO)ccc2s1	-5	-10	0	6%	-0.3
O=C(Cn1cc(/C=C\[N+](=O)[O-])c2ccccc21)Nc1ccccc1	·	53	·	8%	-1.8
Cn1cc(S(=O)(=O)Nc2ccc(Oc3ccccc3)cc2)c(=O)n(C)c1=O	·	-5	·	·	-0.8
COCc1cc(/C=N\NC(=O)c2ccc(Cl)cc2)ccc1OC	-19	-4	-8	-2%	-1.0
O=C(COc1nncc2ccccc12)Nc1ccc(Br)cc1F	·	-1	-4	8%	3.4
CCOc1ccccc1NC(=O)C1CCCN(S(=O)(=O)c2cccc3nsnc23)C1 (configuration not stated)	-18	-6	-6	4%	1.0
Cc1ccc(C)c(-c2nnc(OCC(=O)Nc3cc(C)on3)c3ccccc23)c1	-2	49	14	9%	2.0
O=C(N=NC(=O)c1ccco1)c1ccc2c(O)n(N3C(=O)c4ccccc4C3=O)c(O)c2c1	-47	-5	7	-4%	0.8
Cc1ccc(NC(=O)c2c3c(nc4ccccc24)CCC3)cc1S(=O)(=O)N(C)C	·	-4	7	-3%	-0.5
COC(=O)c1ccc(C2/C(=C(\O)c3ccc4c(c3)OCCO4)C(=O)C(=O)N2c2nnc(C)s2)cc1 (configuration not stated)	·	-3	·	·	-1.3
Cc1nnsc1NC(=O)OCc1ccc(C(C)(C)C)cc1	-5	78	-22	-1%	-7.5
CC(=O)Nc1ccc(N(CC(O)Cn2c3ccccc3c3ccccc32)S(=O)(=O)c2ccc(C)cc2)cc1 (configuration not stated)	-44	75	-23	72%	3.3

The last six records of the section above open the next one:
SMILES	YopH inh	Mtb bLac sens	Arbovirus anti	Mtb growth	RecA splice inh	others
Cc1ccc(C)c(-c2nnc(OCC(=O)Nc3cc(C)on3)c3ccccc23)c1	-2	49	14	9%	2.0
O=C(N=NC(=O)c1ccco1)c1ccc2c(O)n(N3C(=O)c4ccccc4C3=O)c(O)c2c1	-47	-5	7	-4%	0.8
Cc1ccc(NC(=O)c2c3c(nc4ccccc24)CCC3)cc1S(=O)(=O)N(C)C	·	-4	7	-3%	-0.5
COC(=O)c1ccc(C2/C(=C(\O)c3ccc4c(c3)OCCO4)C(=O)C(=O)N2c2nnc(C)s2)cc1 (configuration not stated)	·	-3	·	·	-1.3
Cc1nnsc1NC(=O)OCc1ccc(C(C)(C)C)cc1	-5	78	-22	-1%	-7.5
CC(=O)Nc1ccc(N(CC(O)Cn2c3ccccc3c3ccccc32)S(=O)(=O)c2ccc(C)cc2)cc1 (configuration not stated)	-44	75	-23	72%	3.3
CC(=O)Nc1ccccc1/C=C/c1ccc2c(C)cc(C)c(O)c2n1	-19	14	-7	15%	-2.4
Cc1cccc(NCN2C(=O)C3C4C=CC(C4)C3C2=O)c1 (configuration not stated)	-7	5	-1	-2%	-1.0
COc1ccc(C(=O)Nc2ccc(Cl)cc2C(=O)N2CCCC(C)C2)cc1 (configuration not stated)	-20	10	3	0%	2.1
CC(C)C[C@H](NC(=O)NCCC1=CCCCC1)C(=O)O	·	-9	·	-12%	0.2
O=C(CCNC(=O)N1CC(=O)Nc2ccccc21)Nc1cccc(Cl)c1	·	-7	·	·	-0.1
COc1cc(NC(=O)Cn2nc(-c3ccc(F)cc3)ccc2=O)ccc1-n1cnnn1	·	-2	4	3%	-0.9
C=CCN1C(=O)C(Cc2cccc(Cl)c2)SC1=Nc1ccc(C(=O)O)cc1 (configuration not stated)	·	4	0	3%	3.7
CCOc1ccccc1-c1nc(-c2ccc(NC(=O)Cc3ccccc3OC)cc2)no1	7	8	-8	6%	4.4
Cc1ccc(C)c(N(CC(=O)NC(C)C)C(=O)CCC(=O)Nc2ccccn2)c1	·	1	·	·	-0.5
Cc1ccc(S(=O)(=O)N2CCN(c3nccnc3C#N)CC2)cc1	·	-7	·	10%	-4.8
CCN(c1ccc(NC(=O)COC(=O)c2cccs2)cc1)C(C)C	-9	-5	12	1%	-0.6
O=C(CSCc1ccc(Cl)c(Cl)c1)Nc1c[nH]c(=O)[nH]c1=O	-33	1	-6	-2%	0.0
Cc1ccc(Oc2nn[nH]n2)cc1	-34	-6	-2	-9%	-1.3
COc1cc(C(=O)NCc2cn3cccc(C)c3n2)cc(OC)c1OC	-49	-5	-3	-1%	1.4
CC(NC(=S)NNS(=O)(=O)c1ccc(C(C)(C)C)cc1)c1ccccc1 (configuration not stated)	·	0	·	3%	12
CCCN(CCC)C(=O)CC(c1ccccc1)c1ccco1 (configuration not stated)	·	-8	·	0%	8.0
Cc1c(CCC(=O)O)c(=O)oc2cc3occ(-c4ccc(F)cc4)c3cc12	-44	?	-8	-12%	-3.7
Cc1ccccc1OCC(O)CN1CCN(CCN2C(=O)c3cccc4cccc(c34)C2=O)CC1 (configuration not stated)	-12	44	-31	32%	3.7
O=C(COc1ccc(Br)cc1)Nc1cc(S(=O)(=O)N2CCCCC2)ccc1N1CCCCC1	-14	-7	-6	3%	-1.7
NC(=O)CC1SC(N)=NC1=O (configuration not stated)	-8	-10	-3	-1%	-0.1
COc1ccc(/C=C2\Oc3cc(OCC(=O)N4CC(O)C[C@H]4C(=O)O)ccc3C2=O)c(OC)c1OC (some centres not stated)	·	1	·	·	2.0

Assay outcomes deposited in PubChem by several laboratories.
